D2 potentiator – potentiates the human D2 dopamine receptor allosterically; P14416; DiscoveRx D2 beta-arrestin cells, luminescence, 90 min; 100% = 57 uM dopamine signal; potentiation, % (no concentration beside the values); hit rate 0.23% among 360,000; AID 624464; active = potentiation of 50% or more; inconclusive = 30% to 50%; inactive = 30% or less;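 also: compound concentration not given in the record; tested on top of an EC20 dose of dopamine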
Target sequence (P14416 whole entry, looked up): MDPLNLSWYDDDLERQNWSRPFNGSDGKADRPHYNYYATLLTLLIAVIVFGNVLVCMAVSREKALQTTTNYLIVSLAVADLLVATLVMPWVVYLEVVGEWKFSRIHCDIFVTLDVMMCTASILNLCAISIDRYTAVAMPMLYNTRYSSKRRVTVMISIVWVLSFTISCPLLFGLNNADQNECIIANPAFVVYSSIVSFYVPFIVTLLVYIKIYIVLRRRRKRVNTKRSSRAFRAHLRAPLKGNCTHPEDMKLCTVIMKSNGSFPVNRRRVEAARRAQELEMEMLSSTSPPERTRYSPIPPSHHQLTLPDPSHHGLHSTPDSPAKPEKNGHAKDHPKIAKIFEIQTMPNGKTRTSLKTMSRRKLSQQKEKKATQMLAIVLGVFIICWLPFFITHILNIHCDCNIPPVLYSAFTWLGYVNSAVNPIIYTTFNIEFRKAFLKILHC
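PathHunter D2 cells, attached overnight at 37 deg C, received compound in DMSO plus dopamine at EC20 (50 nM final) for 90 min at 37 deg C. Beta-arrestin recruitment was read as luminescence after 1 h with detection reagent at ambient temperature.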
PINK1 expr mod – modulators of PINK1 expression. PINK1 immunofluorescence, high-content cytometry, 24 h. Potency, µM (top dose mostly 76.6 µM), inactives show top-dose activation (PINK1 increase), hits mostly activators. hit rate 0.2% among 410,000; active = well fitted activation curve with a large enough effect; inconclusive = small, poorly fitted or top-dose-only effect; inactive = flat fitted curve, though single readings scatter; cell line not stated here;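 also: potency is read from the fitted curve at half-maximal effect; % of control where 0% means no effect; nearly all actives have a fitted effect of over 65% in size; a mitochondrial uncoupler was the plate control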
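Compound titrations (5 concentrations, 24 h) on a stable cell line; DMSO and CCCP controls. Endpoint: fixed-cell PINK1 immunofluorescence with mitochondrial, cell and nuclear markers, scanned by microplate cytometer.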
D2 ag – human D2 receptor agonism in beta-arrestin assay; P14416; DiscoveRx PathHunter D2 beta-arrestin, luminescence, 90 min; 100% = 57 uM dopamine signal; activation, % (test concentration not listed); hit rate 0.084% among 360,000; in the data active = activation above about 40%; inconclusive = about 15% to 40%; inactive = below about 15%; also: compound concentration not given in the record; the text of the record calls up to 30% inactive
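DiscoveRx PathHunter D2 beta-arrestin cells (2,100/well) attached overnight, then compound-stimulated 90 min at 37 C in HBSS/10 mM HEPES/0.1% Tween-20 buffer; beta-galactosidase complementation read by luminescence after 1 h at ambient temperature. Dopamine 57 uM final (EC100) as control.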
Six1-Eya2 blk – inhibitors of human Six1/Eya2 interaction | Q15475+O00167 | hit rate 0.56% among 360,000 | AlphaScreen GST-Six1/His-Eya2 binding, biochemical; hits give low values; control for the full effect not named in the record | activity change, % (test concentration not listed) | AID 651725; in the data active = activity change below about -65%; inconclusive = about -30% to -65%; inactive = above about -30%; also: % is scaled to controls: 0 for no effect and ±100 for the full control effect; compound concentration not given in the record
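AlphaScreen with GST-Six1 and His-Eya2 (5X mix: 250 nM and 500 nM), glutathione donor and nickel acceptor beads; buffer 50 mM Tris pH 8.0, 300 mM NaCl, 1 mM TCEP; 1 h at 37 C in the dark.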
CtBP-E1A blk – inhibitors of CtBP/E1A interaction. AlphaScreen GST-E1A/His-CtBP binding, 1536-well; hits give low values; control for the full effect not named in the record. activity change, % (test concentration not listed). hit rate 0.49% among 340,000; in the data active means activity change below about -65%; inconclusive means about -30% to -65%; inactive means above about -30%; also: % is scaled to controls: 0 for no effect and ±100 for the full control effect; compound concentration not given in the record
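In 5 uL wells, 23 nL compound meets equimolar GST-E1A and His-CtBP (5X stock 125 nM each) for 2 h, 37 °C. Beads (5X, 50 ug/mL) then 1 h, 37 °C, dark.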
TRPV1 PAM – human TRPV1 potentiation. Q8NER1. TRPV1-expressing cells, Fluo-8 calcium influx, capsaicin EC20 potentiation; host cell line not named in the record; control for the full effect not named in the record. potentiation, % at 8.33 µM. hit rate 0.02% among 320,000. AID 540277; active means potentiation above 80%; inconclusive means 30% to 80%; inactive means below 30%; also: 0% is about no effect
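TRPV1-expressing cells were cultured overnight at 35.5C and loaded with Fluo-8 calcium dye for 40 to 90 min at room temperature. After a 10 s baseline, compound was added and calcium influx was read kinetically for 3 min (ex 480/em 520 nm).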
Sfp inh – Sfp phosphopantetheinyl transferase inhibition; Biochemical Sfp PPTase activity, qHTS; Potency, µM, without a hit: max response, negative = inhibition, most hits filed as inhibitors; hit rate 3.5% among 310,000; active = well fitted inhibition curve with a large enough effect; inconclusive = small, poorly fitted or top-dose-only effect, or another doubt; inactive = no such curve, though single readings can be large or run the other way;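 also: the enzyme is Sfp with the accession as filed and its product quenches rhodamine fluorescence; potency is read from the fitted curve at half-maximal effect; 0% = enzyme reaction without inhibitor and -100% = no enzyme wells; top concentration of the series not given in the record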
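Fluorescence-quenching assay with 15 nM Sfp, 5 uM rhodamine-CoA and 12.5 uM BHQ-2-labelled ybbR peptide in pH 7.6 Hepes/MgCl2 buffer. Enzyme was pre-incubated with compound for 15 min at room temperature. Rate was taken from the 30-min fluorescence change (525/598 nm).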
Numbers without * were called inactive; ? = inconclusive; / = no result given; [ ] = dose if it differs, or a comment.

SMILES	D2 potentiator	PINK1 expr mod	D2 ag	Six1-Eya2 blk	CtBP-E1A blk	TRPV1 PAM	Sfp inh
CN(C)c1ccc2c3c(ccc(N(C)C)c13)COC2	-3	3.0%	-0.9	5	6	5	-15%
COC(=O)c1ccccc1NC(=O)CSc1nnnn1CC(=O)O	-2	-0.4%	-2.9	13	1	0	7%
CSc1nc(C)c(Cc2ccccc2)c(=O)[nH]1	-1	-0.6%	-1.7	-4	3	-3	-10%
O=C(CCc1ccccc1)Nc1ccc(S(=O)(=O)NC2=NCCCCC2)cc1	-1	0.0%	-3.3	18	-3	/	/
C=CCn1c(C)nnc1SCC(=O)N1c2ccccc2NC(=O)C1(C)C	-10	-0.6%	-2.7	5	5	/	/
COc1ccccc1OCCSc1nc2ccccc2n1CC(=O)O	3	1.4%	1.5	8	4	/	/
COc1ccc(C2CC(c3ccccc3)=NN2C(=O)CSc2nnnn2-c2cccc(C)c2)cc1 (centres undefined)	-1	5.4%	-1.8	7	2	/	/
COc1cccc(C(C(=O)NC2CCCCC2)N(CCN2CCOCC2)C(=O)C2COc3ccccc3O2)c1 (centres undefined)	5	1.6%	1.1	-1	4	-7	5%
CSc1c(-c2ccccn2)c(N)nn1C(=O)C1CCC1	-31	13%	2.0	20	-1	-12	-15%
COc1ccccc1CCNC(=O)c1cccc(S(=O)(=O)N2CCc3ccccc3C2)c1	-2	-0.4%	-1.9	7	/	?	/
C=CCNC(=O)C1CCC(C(=O)NCC=C)CC1 (centres undefined)	-7	-0.5%	-1.9	2	5	0	12%
CC(C)(C)OC(=O)N[C@H](Cc1ccccc1)C(=O)N1CCC[C@@H]1C(=O)O	-4	0.1%	-0.1	3	/	-7	14%
CCOC(=O)c1c(C2CC2)csc1NC(C)=O	-4	7.5%	-1.0	8	5	12	3%
CN(C)CCNS(=O)(=O)c1ccc2c3c(cccc13)C(=O)N2	-9	-1.4%	-3.5	3	/	-8	16%
CC(C)CNC(=O)c1ccccc1NC(=O)c1ccccc1N(C)S(C)(=O)=O	-28	1.3%	-4.4	-9	3	?	-16%
CCC(=O)Nc1cccc(-c2nnc(-c3ccccc3)o2)c1	-2	-2.5%	-0.9	2	7	/	/
COc1ccc(/C=C/c2c(-c3ccc(OC)cc3)oc3ccc(-c4ccc(OC)cc4)cc23)cc1	2	-0.1%	-0.4	20	4	6	7%
COc1ccc(CCNC(=O)CC2SC(=NCc3ccccc3OC)NC2=O)cc1 (centres undefined)	-7	-1.0%	7.5	-9	-16	7	7%
COc1ccc(N2CCN(C(=O)c3ccc(SC)cc3OC)CC2)cc1	-4	0.4%	1.2	-5	18	6	-15%
COc1ccc(CNC(=O)C2CCCN(C(=O)Nc3ccc(OC)cc3)C2)cc1 (centres undefined)	-3	0.6%	4.4	2	1	15	12%
CC(=O)Nc1cc(-c2ccc(N)nc2)cn2c(-c3cccc(C(F)(F)F)c3)cnc12	-18	2.0%	-5.5	-8	-4	/	/
COc1ccc(/C=C(\NC(=O)c2ccc(C)cc2)C(=O)NCCCn2ccnc2)cc1OC	-8	-1.6%	-1.1	-26	-9	5	15%
COc1ccccc1NC(=O)CCSc1nc(C)cc(C)n1	-1	-0.6%	-2.5	1	-6	3	-1%
Cc1cc(=O)oc2c(C)c(OCC(=O)c3ccccc3)ccc12	-3	3.8%	-3.8	5	-1	-12	22%
COc1ccc(NC(=O)CN(c2cc(C)cc(C)c2)S(=O)(=O)c2c(C)noc2C)cc1	-10	4.2%	-7.4	-7	0	7	13%

An excerpt of these results, with two lines to a compound.
Values run as follows: D2 potentiator, PINK1 expr mod, D2 ag, Six1-Eya2 blk, CtBP-E1A blk, TRPV1 PAM, Sfp inh
CN(C)c1ccc2c3c(ccc(N(C)C)c13)COC2
  -3, 3.0%, -0.9, 5, 6, 5, -15%
COC(=O)c1ccccc1NC(=O)CSc1nnnn1CC(=O)O
  -2, -0.4%, -2.9, 13, 1, 0, 7%
CSc1nc(C)c(Cc2ccccc2)c(=O)[nH]1
  -1, -0.6%, -1.7, -4, 3, -3, -10%
O=C(CCc1ccccc1)Nc1ccc(S(=O)(=O)NC2=NCCCCC2)cc1
  -1, 0.0%, -3.3, 18, -3, /, /
C=CCn1c(C)nnc1SCC(=O)N1c2ccccc2NC(=O)C1(C)C
  -10, -0.6%, -2.7, 5, 5, /, /
COc1ccccc1OCCSc1nc2ccccc2n1CC(=O)O
  3, 1.4%, 1.5, 8, 4, /, /

Back to the main list, repeating the 3 entries before the break.
SMILES	D2 potentiator	PINK1 expr mod	D2 ag	Six1-Eya2 blk	CtBP-E1A blk	TRPV1 PAM	Sfp inh
COc1ccccc1NC(=O)CCSc1nc(C)cc(C)n1	-1	-0.6%	-2.5	1	-6	3	-1%
Cc1cc(=O)oc2c(C)c(OCC(=O)c3ccccc3)ccc12	-3	3.8%	-3.8	5	-1	-12	22%
COc1ccc(NC(=O)CN(c2cc(C)cc(C)c2)S(=O)(=O)c2c(C)noc2C)cc1	-10	4.2%	-7.4	-7	0	7	13%
CCCNC(=O)C1(C)CCCN(CCC(=O)c2ccccc2)C1 (centres undefined)	-6	-0.1%	-2.6	19	3	/	/
COc1ccccc1C(=O)NC(CCSC)C(=O)OC(C)C(N)=O (centres undefined)	-3	0.8%	-5.8	8	-4	-4	14%
CCc1cccc(C)c1NC(=O)CSc1nnc(-c2ccco2)n1N	6	-0.7%[38.3 µM]	-0.5	29	36	3	-3%
O=C(CSc1nccc(=O)[nH]1)Nc1ccc(F)c(Cl)c1	-5	4.2%[38.3 µM]	2.4	4	0	2	-2%
CCN1CCN(S(=O)(=O)c2cc(OCC(=O)NC3CCCCC3)c(C)cc2Cl)CC1	-3	-1.4%	-1.4	4	-15	10	18%
COCCOC(=O)c1c(NC(=O)COC(=O)Cc2cccc(OC)c2)sc(C(N)=O)c1C	-5	4.3%	-3.0	-11	-15	2	-1%
Cc1cccc(NC(=O)C2CCN(S(=O)(=O)c3c(C)nn(C)c3C)CC2)n1	-4	0.6%	-1.0	5	-2	-1	9%
CSc1cccc(NC(=O)CCCOc2ccc(Cl)cc2C)c1	-13	?	-4.7	14	3	-4	9%
Cc1cc(NC(=O)CSc2n[nH]c(CC(C)C)n2)no1	9	0.8%	-3.5	0	2	5	-9%
O=C1c2ccccc2C(O)N1Cc1ccco1 (centres undefined)	-1	3.1%	-6.8	2	-1	?	6%
CC(=O)c1sc2nc(-c3cccs3)cc(C(F)(F)F)c2c1N	-15	?	-5.5	20	19	2	8%
COc1ccc(N2C(=O)CSC23CCCCC3)cc1	-2	1.9%[38.3 µM]	-1.5	1	-4	2	1%
Cc1ccc(CSc2ccc3nnc(-c4cccnc4)n3n2)cc1	2	2.5%	2.5	-18	0	0	6%
O=C(O)c1ccc(S(=O)(=O)c2ccc3c(c2)C(=O)N(Cc2ccco2)C3=O)cc1	-17	?	-0.4	-6	2	-11	?
O=C(CSc1nnnn1-c1ccc(Cl)cc1)N1CCc2ccccc2C1	-2	16%[38.3 µM]	-0.8	-2	8	-13	1%
Cc1ccc(C(C2=C(O)CC(C)(C)CC2=O)C2C(=O)CC(C)(C)CC2=O)o1 (centres undefined)	-13	-0.5%	-5.3	-1	8	13	-18%
O=C(Nc1nc2c(s1)CN(Cc1ccccc1)CC2)c1cccc(S(=O)(=O)N2CCc3ccccc32)c1	-4	5.2%	0.9	3	2	12	-6%
O=C(Nc1ccncc1)c1ccccc1-c1ccccc1	3	-0.3%	-0.8	3	20	-8	17%
O=P(OC1CCCCC1)(OC1CCCCC1)C(O)c1ccc(Cl)cc1Cl (centres undefined)	-6	9.1%	-1.3	7	1	29	11%
CS(=O)(=O)N(CC(=O)N1CCN(c2cccc(Cl)c2)CC1)c1cccc(F)c1	-1	3.4%	-3.4	-6	1	-6	-10%
O=C1NCC(COc2ccc([N+](=O)[O-])cc2)O1 (centres undefined)	-2	-1.2%	-5.1	0	2	-1	-3%
COC(=O)c1ccccc1N(C)S(C)(=O)=O	-10	5.2%	-1.2	0	1	6	20%
CCOC(=O)C1CCN(c2c(NCCCN3CCCCC3)c(=O)c2=O)CC1	-8	1.6%	-4.0	1	2	19	12%
COc1ccc(/C=C2\SC(=O)N(CCC(=O)Nc3ccc(S(=O)(=O)Nc4nccs4)cc3)C2=O)cc1	-5	8.9%	-3.3	?	-17	11	-30%
Cc1ccc(NC(=O)CC2S/C(=N/c3nccs3)N(C)C2=O)c(C)c1 (centres undefined)	-26	-0.5%	0.4	2	-2	-12	-5%
COc1ccc(C2Nc3ccccc3NC3=C2C(=O)CC(C)(C)C3)cc1 (centres undefined)	13	-1.0%	12	0	5	-2	8%
C=C(C)CNC(=S)NNC(=O)c1ccc(Br)cc1	-6	-0.6%	-16	5	12	10	31%
COc1ccccc1CC(=O)NCCc1c[nH]c2ccccc12	-8	-1.2%	-2.8	0	3	2	10%
C=CCNC(=O)c1onc(CSc2cccc(OC)c2)c1C(=O)NCC=C	-4	0.0%	0.8	9	2	20	16%

Ordered by heavy-atom count (high to low): three of the compounds above
SMILES	D2 potentiator	PINK1 expr mod	D2 ag	Six1-Eya2 blk	CtBP-E1A blk	TRPV1 PAM	Sfp inh
CCN1CCN(S(=O)(=O)c2cc(OCC(=O)NC3CCCCC3)c(C)cc2Cl)CC1	-3	-1.4%	-1.4	4	-15	10	18%
Cc1ccc(C(C2=C(O)CC(C)(C)CC2=O)C2C(=O)CC(C)(C)CC2=O)o1 (centres undefined)	-13	-0.5%	-5.3	-1	8	13	-18%
COC(=O)c1ccccc1N(C)S(C)(=O)=O	-10	5.2%	-1.2	0	1	6	20%

Compound activity (PubChem BioAssay)
